# Bioassay records: PubChem BioAssay, Broad Institute
# Vaccinia stage: blocks a specific stage of Vaccinia orthopoxvirus infection, primary screen, cell-based, single point; Vaccinia-infected cells, mCherry/Venus stage reporter fluorescence; active compounds read low; some inactives read as strong as hits; activity change (mCherry), % (no concentration beside the values); actives 0.01% (n = 89,000); AID 1053133, 2014;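 active means mCherry past -33% and 40 or more points under the early reporter, replicates agreeing; inconclusive means past -33% without that gap or agreement; tested in A549 cells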;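 further: scaled between vehicle wells and reference inhibitor wells; 23 nL library stock went into each well; one replicate is shown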
# Vaccinia stage Venus: further read-out of Vaccinia stage, marked with its call; activity change (Venus), %; measured here: Venus reporter, other viral stage;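 negative = less Venus signal; first of two replicates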
# Active calls of the source: *; ? = inconclusive; nt = not tested or not shown.
# Second line of a record: Vaccinia stage, Vaccinia stage Venus
> Cc1ccc(S(=O)(=O)N2[C@@H]3CNC[C@H]2C3c2ccc(-c3cccc(C#N)c3)cc2)cc1 (stereo partly drawn)
→ -11, -7
> O=C(c1ccc(F)cc1)N1CC(=O)N2[C@H](CO)[C@H](c3ccc(-c4ccccc4)cc3)[C@H]2C1
→ -15, -5
> COc1ccc(-c2ccc3c(c2)[C@H]2[C@H](CCN2Cc2ccncc2)[C@@H](CO)N3)cc1
→ -9, 9
> CCC(=O)N1CC(=O)N2[C@@H](CO)[C@@H](c3ccc(-c4ccc(C#N)cc4)cc3)[C@@H]2C1
→ -4, -6
> Cc1noc(C)c1NC(=O)Nc1ccc2c(c1)CC(=O)N([C@@H](C)CO)C[C@H](C)[C@H](CN(C)S(=O)(=O)c1ccccc1)O2
→ 9, -3
> CCCNC(=O)N(Cc1cccnc1)C[C@H]1N[C@H](CO)[C@@H]1c1ccccc1
→ 13, 7
> C[C@@H]1CN([C@H](C)CO)C(=O)c2cc(NS(=O)(=O)c3ccc(Cl)cc3)ccc2O[C@H]1CN(C)Cc1ccc(Oc2ccccc2)cc1
→ ?, nt
> C[C@@H]1CN([C@@H](C)CO)C(=O)Cc2cc(NS(=O)(=O)c3ccccc3)ccc2O[C@H]1CN(C)S(=O)(=O)c1ccccc1
→ 5, -1
> CO[C@@H]1CN(C)C(=O)c2ccc(NS(=O)(=O)C3CCCCC3)cc2OC[C@@H](C)NC[C@@H]1C
→ -6, 1
> C[C@@H]1CCCCO[C@@H](CN(C)C(=O)Nc2ccccc2)[C@H](C)CN([C@@H](C)CO)C(=O)c2cc(NS(=O)(=O)c3cccs3)ccc2O1
→ 9, 7
> O=C(C[C@@H]1C=C[C@@H](NC(=O)C2CCC2)[C@@H](CO)O1)NCC1CC1
→ 5, -3
> CS(=O)(=O)Nc1ccc2c(c1)[C@H]1C[C@H](CC(=O)NCCN3CCCCC3)O[C@H](CO)[C@H]1O2
→ 20, 17
> Cc1noc(C)c1NC(=O)N(C)C[C@H]1Oc2ccc(NC(=O)CCC(F)(F)F)cc2CC(=O)N([C@@H](C)CO)C[C@@H]1C
→ 9, 12
> C[C@@H]1CN([C@H](C)CO)S(=O)(=O)c2ccc(-c3cccnc3)cc2O[C@@H]1CN(C)C(=O)C1CCC1
→ 2, 5
> O=S(=O)(c1ccccc1)N1[C@H](CO)[C@@H]2c3ccccc3NC[C@@H]21
→ 0, -7
> CC(C)C#Cc1cnc2c(c1)C(=O)N([C@H](C)CO)C[C@H](C)[C@@H](CN(C)Cc1ccccn1)O2
→ 4, 4
> COc1ccc(NC(=O)Nc2cccc3c2O[C@H](CN(C)S(C)(=O)=O)[C@@H](C)CN([C@H](C)CO)C3=O)cc1
→ ?, nt
> COc1ccc2c3c([nH]c2c1)[C@@H](CO)N(C(=O)C1CCC1)CC31CCN(S(C)(=O)=O)CC1
→ 12, 7
> C[C@@H]1CN([C@H](C)CO)C(=O)c2cc(C#Cc3cccc(F)c3)cnc2O[C@@H]1CN(C)C(=O)C1CCC1
→ 7, 3
> COc1ccc(NC(=O)Nc2ccc3c(c2)C(=O)N([C@@H](C)CO)C[C@H](C)[C@H](CN(C)S(=O)(=O)c2ccc(OC)cc2)O3)cc1
→ -1, 2
> C[C@@H](NC(=O)C[C@@H]1C=C[C@H](NS(=O)(=O)c2cccc(F)c2)[C@@H](CO)O1)c1ccccc1
→ 1, 2
> COc1ccc(NC(=O)Nc2ccc3c(c2)C(=O)N([C@H](C)CO)C[C@@H](C)[C@H](CN(C)Cc2ccc(C(F)(F)F)cc2)OCCCC[C@H](C)O3)cc1
→ ?, nt
> C[C@H]1CN([C@@H](C)CO)C(=O)c2cc(NS(C)(=O)=O)ccc2O[C@H]1CN(C)S(=O)(=O)c1ccc(F)cc1
→ 12, 4
> CO[C@@H]1CN(C)C(=O)c2cc(NS(=O)(=O)CC(F)(F)F)ccc2OC[C@H](C)N(CCC(F)(F)F)C[C@H]1C
→ 18, 8
> CN1[C@@H]2c3ccc(-c4ccccc4)c(=O)n3C[C@@H]2[C@@H](CO)[C@@H]1C(=O)NC1Cc2ccccc2C1
→ -11, -11
> CC(=O)N(C)C[C@H]1OCc2ccccc2-c2c(n(C)c3ccccc23)C(=O)N([C@H](C)CO)C[C@H]1C
→ 10, -3
> Cc1ccc(S(=O)(=O)N(C)C[C@@H]2Oc3c(NC(=O)Nc4ccc(F)cc4)cccc3C(=O)N([C@H](C)CO)C[C@@H]2C)cc1
→ ?, nt
> C[C@@H]1CN([C@@H](C)CO)C(=O)c2cc(NC(=O)Nc3ccc(C(F)(F)F)cc3)ccc2O[C@@H]1CN(C)S(=O)(=O)c1ccc(F)cc1
→ -21, -10
> C[C@@H]1CN([C@@H](C)CO)C(=O)Cc2cc(NC(=O)Nc3ccc(F)cc3)ccc2O[C@@H]1CN(C)S(=O)(=O)c1ccc(F)cc1
→ -1, -5
> C[C@H](CO)N1C[C@H](C)[C@H](CN(C)Cc2ccncc2)Oc2c(NS(=O)(=O)c3ccccc3)cccc2C1=O
→ 11, 11
> CO[C@H]1CN(C)C(=O)c2ccc(NC(=O)C3CCCCC3)cc2OC[C@H](C)NC[C@H]1C
→ 10, 7
> C[C@H](CO)N1C[C@H](C)[C@@H](CN(C)C(=O)Nc2ccccc2)OCc2ccccc2-c2ccccc2C1=O
→ 18, 8
> C[C@@H]1CN([C@H](C)CO)C(=O)c2cccc(NC(=O)Nc3cccc4ccccc34)c2O[C@H]1CN(C)C(=O)Nc1ccccc1
→ -11, 6
> O=C(c1cccc(F)c1)N1C[C@@H]2[C@H](c3ccccc31)[C@H](CO)N2C(=O)c1cccc(F)c1
→ 5, 10
> COc1ccccc1-c1ccc2c(c1)O[C@H](CN(C)S(=O)(=O)c1ccccc1)[C@H](C)CN([C@H](C)CO)S2(=O)=O
→ -31, -25
> C[C@@H]1CN([C@@H](C)CO)C(=O)c2c(c3ccccc3n2C)-c2ccccc2CO[C@@H]1CN(C)S(=O)(=O)c1ccccc1F
→ ?, nt
> COCC(=O)N1[C@H](C#N)[C@H](c2ccccc2C2=CCCC2)[C@@H]1CO
→ -7, -11
> CC(C)C#Cc1ccc([C@@H]2[C@@H](C#N)N(C(=O)c3ccccn3)[C@H]2CO)cc1
→ -24, -20
> C[C@@H]1CN([C@H](C)CO)C(=O)c2cc(C3=CCCC3)cnc2O[C@H]1CN(C)Cc1ccccc1
→ -13, -12
> C[C@@H]1CCCCO[C@@H](CN(C)S(C)(=O)=O)[C@H](C)CN([C@@H](C)CO)C(=O)c2cc(NC(=O)Nc3cccc4ccccc34)ccc2O1
→ 18, 18
> C[C@@H]1CN([C@@H](C)CO)C(=O)c2cccc(NC(=O)c3ccc(-c4nccs4)cc3)c2O[C@H]1CN(C)Cc1ccc(C(=O)Nc2ccccc2N)cc1
→ -12, 7
> C[C@H]1CN([C@@H](C)CO)C(=O)c2cccc(NC(=O)Nc3ccc(C(F)(F)F)cc3)c2O[C@@H]1CN(C)S(=O)(=O)c1cccs1
→ ?, nt
> C[C@@H]1CCCCO[C@@H](CN(C)S(=O)(=O)c2ccc(Cl)cc2)[C@@H](C)CN([C@H](C)CO)C(=O)c2cc(NS(=O)(=O)c3ccc(F)cc3)ccc2O1
→ 0, -13
> N#C[C@H]1[C@@H](c2ccccc2)[C@H](CO)N1S(=O)(=O)c1cccc(F)c1
→ 4, 0
> C[C@@H]1CN([C@H](C)CO)C(=O)c2cc(NC(=O)Nc3ccccc3)ccc2O[C@@H](C)CCCCO[C@H]1CN(C)S(C)(=O)=O
→ 15, 9
> C[C@H](CO)N1C[C@H](C)[C@@H](CN(C)Cc2ccccc2)Oc2ccc(NC(=O)c3ccncc3)cc2CC1=O
→ -1, 14
> C[C@@H]1CN([C@H](C)CO)C(=O)c2cc(NC(=O)Nc3ccc(C(F)(F)F)cc3)ccc2O[C@@H]1CN(C)S(=O)(=O)c1ccc(Cl)cc1
→ -29, -19
> CO[C@@H]1CN(C)C(=O)c2cc(NC(=O)Nc3ccc4c(c3)OCO4)ccc2OC[C@@H](C)N(C)C[C@H]1C
→ 10, 6
> CO[C@@H]1CN(C)C(=O)c2ccc(NS(C)(=O)=O)cc2OC[C@@H](C)N(C(=O)NC(C)C)C[C@H]1C
→ 8, 2
> CCC(=O)N(C)C[C@@H]1Oc2cc(C#Cc3ccncc3)ccc2S(=O)(=O)N([C@H](C)CO)C[C@@H]1C
→ ?, nt
> CCCC(O)C#Cc1cnc2c(c1)C(=O)N([C@H](C)CO)C[C@H](C)[C@H](CN(C)C(=O)Nc1ccccc1)O2 (stereo partly drawn)
→ 17, -2
> COc1ccc(C#Cc2ccc3c(c2)O[C@H](CN(C)C(=O)c2ccccn2)[C@H](C)CN([C@H](C)CO)S3(=O)=O)cc1
→ ?, nt
> Cc1ccc(S(=O)(=O)N(C)C[C@H]2OCCCC[C@@H](C)Oc3ccc(NC(=O)c4ccccc4)cc3C(=O)N([C@H](C)CO)C[C@@H]2C)cc1
→ -6, -1
> COc1ccc(NC(=O)Nc2cccc3c2O[C@@H](CN(C)C(=O)Nc2ccc4c(c2)OCO4)[C@H](C)CN([C@H](C)CO)C3=O)cc1
→ 17, 8
> CN1CCN(C(=O)C[C@@H]2CC[C@H]3[C@H](COc4ccc(NC(=O)C5CCOCC5)cc4C(=O)N3C)O2)CC1
→ 12, 8
> C[C@H](O)C#Cc1cnc2c(c1)C(=O)N([C@H](C)CO)C[C@@H](C)[C@@H](CN(C)C(=O)c1ccc(F)cc1)O2
→ 48, 28
> COc1ccc(NC(=O)Nc2ccc3c(c2)CC(=O)N([C@@H](C)CO)C[C@H](C)[C@H](CN(C)Cc2ccc(C(=O)Nc4ccccc4N)cc2)O3)cc1
→ 2, 3
> CO[C@H]1CN(C)C(=O)c2cc(NC(=O)C3CCC3)ccc2OC[C@@H](C)N(CC2CCCCC2)C[C@@H]1C
→ ?, nt
> C[C@@H]1CN([C@H](C)CO)C(=O)c2cc(NS(=O)(=O)c3ccc(Cl)cc3)ccc2O[C@@H](C)CCCCO[C@@H]1CN(C)Cc1ccc(Cl)c(Cl)c1
→ -31, -24
> Cc1noc(C)c1S(=O)(=O)Nc1ccc2c(c1)CC(=O)N([C@H](C)CO)C[C@@H](C)[C@@H](CN(C)C(=O)Nc1ccccc1)O2
→ 10, 8

# Later entries
# Second line of a record: Vaccinia stage, Vaccinia stage Venus
> CO[C@H]1CN(C)C(=O)c2cc(NS(=O)(=O)CC(F)(F)F)ccc2OC[C@H](C)N(C)C[C@H]1C
→ -3, -3
> C[C@@H]1CN([C@@H](C)CO)C(=O)c2cccc(NC(=O)CCCCCC(=O)Nc3ccccc3N)c2O[C@H]1CN(C)Cc1ccncc1
→ 20, 15
> CCCNC(=O)N1CC2(CN(C(=O)C3CCCC3)C2)c2c([nH]c3cc(OC)ccc23)[C@H]1CO
→ -9, -8
> C[C@@H]1CCCCO[C@H](CN(C)C(=O)Nc2ccc(F)cc2)[C@@H](C)CN([C@H](C)CO)C(=O)c2cc(NS(=O)(=O)c3cn(C)cn3)ccc2O1
→ 13, 8
> CC(C)NC(=O)Nc1ccc2c(c1)CC(=O)N([C@H](C)CO)C[C@H](C)[C@H](CN(C)S(=O)(=O)c1ccc(F)cc1)O2
→ 8, 7
> Cc1noc(C)c1S(=O)(=O)N(C)C[C@@H]1OCCCC[C@@H](C)Oc2ccc(NC(=O)C3CCCCC3)cc2C(=O)N([C@@H](C)CO)C[C@@H]1C
→ -2, -8
> CN(C[C@H]1[C@H](c2ccccc2)[C@H](CO)N1Cc1ccccn1)S(C)(=O)=O
→ 6, 13
> COc1cccc(C#Cc2ccc([C@@H]3[C@H](CO)N4C(=O)CN(C(=O)Cc5ccccc5)C[C@@H]34)cc2)c1
→ -23, -16
> C[C@@H]1CN([C@@H](C)CO)C(=O)c2cccc(NS(=O)(=O)c3ccc(F)cc3)c2O[C@@H]1CN(C)S(=O)(=O)c1cn(C)cn1
→ 7, 8
> C[C@H](CO)N1C[C@H](C)[C@H](CN(C)S(=O)(=O)c2ccccc2)Oc2ccc(NC(=O)CCC(F)(F)F)cc2CC1=O
→ -9, -9
> C[C@H](CO)N1C[C@H](C)[C@H](CN(C)C(=O)NC2CCCCC2)OCCCC[C@H](C)Oc2ccc(NC(=O)Nc3ccccc3)cc2C1=O
→ -3, 5
> COc1ccc(S(=O)(=O)Nc2ccc3c(c2)C(=O)N([C@H](C)CO)C[C@@H](C)[C@@H](CN(C)C(=O)Nc2c(C)noc2C)O3)cc1
→ 9, 4
> CN(C)CCCCCCNC(=O)[C@H]1C[C@H]2C(=O)N3CCC[C@H]3C(=O)N2[C@H]1c1cccc(OCCO)c1
→ 6, 2
> COCC(=O)Nc1ccc2c(c1)C(=O)N(C)C[C@H](OC)[C@@H](C)CN(Cc1cccnc1)[C@H](C)CO2
→ 1, 1
> CNC[C@@H]1Oc2ccc(NC(=O)c3ccncc3)cc2CC(=O)N([C@H](C)CO)C[C@@H]1C
→ 22, 22
> O=C(Cc1ccccc1)N1CC(=O)N2[C@H](CO)[C@@H](c3ccc(Br)cc3)[C@H]2C1
→ 14, 3

# An excerpt from the list above:
# Second line of a record: Vaccinia stage, Vaccinia stage Venus
> COc1cccc(C#Cc2ccc([C@@H]3[C@H](CO)N4C(=O)CN(C(=O)Cc5ccccc5)C[C@@H]34)cc2)c1
→ -23, -16
> C[C@@H]1CN([C@@H](C)CO)C(=O)c2cccc(NS(=O)(=O)c3ccc(F)cc3)c2O[C@@H]1CN(C)S(=O)(=O)c1cn(C)cn1
→ 7, 8
> C[C@H](CO)N1C[C@H](C)[C@H](CN(C)S(=O)(=O)c2ccccc2)Oc2ccc(NC(=O)CCC(F)(F)F)cc2CC1=O
→ -9, -9
> C[C@H](CO)N1C[C@H](C)[C@H](CN(C)C(=O)NC2CCCCC2)OCCCC[C@H](C)Oc2ccc(NC(=O)Nc3ccccc3)cc2C1=O
→ -3, 5
> COc1ccc(S(=O)(=O)Nc2ccc3c(c2)C(=O)N([C@H](C)CO)C[C@@H](C)[C@@H](CN(C)C(=O)Nc2c(C)noc2C)O3)cc1
→ 9, 4
> CN(C)CCCCCCNC(=O)[C@H]1C[C@H]2C(=O)N3CCC[C@H]3C(=O)N2[C@H]1c1cccc(OCCO)c1
→ 6, 2

# An excerpt (hit frequency here may not be typical).
